# UUG fidelity – yeast start codon fidelity modulation | activity score, % at 18.7 µM | AID 602363 | S. cerevisiae UUG-firefly luciferase reporter, luminescence/redox ratio | hit rate 0.13% among 350,000;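 active means replicate mean at a twofold rise or more, about +100% in these data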;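 further: firefly luciferase made from a UUG start codon reports start codon fidelity; reporter light over untreated wells divided by growth signal over untreated wells; some hits fall short of that in this replicate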
# Env fusion inh – blocks HIV Env-driven cell-cell fusion; hit rate 1.1% among 360,000; HeLa-JRFL Env/CEM21 cell fusion, luciferase; inhibition, % at 12.3 µM;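 active means mean replicate inhibition score of at least 50 and every replicate individually at or above 50; inconclusive means only one of the two criteria met; inactive means mean below 50 and not all replicates reaching 50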;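 further: 0% = plate neutral controls and 100% = maraviroc near 300 nM; one replicate is shown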
# The depositor's hits bear a star; ? = inconclusive; [ ] = another dose, or the depositor's remark. An excerpt (hit frequency here may not be typical).
# Results follow in this order: Env fusion inh	UUG fidelity
C[C@H]1CN([C@@H](C)CO)C(=O)c2cccc(NC(=O)Nc3ccc4c(c3)OCO4)c2O[C@H]1CN(C)C(=O)Nc1ccc(C(F)(F)F)cc1
 : 6.6[16.7 µM]	-0.9
Cc1noc(C)c1NC(=O)N(C)C[C@@H]1OCCCC[C@H](C)Oc2ccc(NC(=O)Cc3ccccc3)cc2C(=O)N([C@H](C)CO)C[C@H]1C
 : -3.7[16.7 µM]	-5.9
C[C@@H]1CN([C@H](C)CO)C(=O)c2cc(NC(=O)Nc3cccc4ccccc34)ccc2O[C@@H]1CN(C)Cc1ccc(Cl)c(Cl)c1
 : -16.3[16.7 µM]	0.1
C[C@@H](O)C#Cc1ccc2c(c1)O[C@H](CN(C)C)[C@@H](C)CN([C@@H](C)CO)S2(=O)=O
 : -8.5[16.7 µM]	-18.2
C[C@H](CO)N1C[C@H](C)[C@@H](CN(C)CC2CCCCC2)OCCCC[C@H](C)Oc2ccc(NS(=O)(=O)c3cccs3)cc2C1=O
 : -14.7[16.7 µM]	15.0
O=C(C[C@@H]1C=C[C@H](NC(=O)Nc2ccccc2)[C@@H](CO)O1)NCc1ccccn1
 : -26.7[16.7 µM]	-7.0
CC(=O)N[C@@H]1C=C[C@H](CC(=O)NCc2ccc(Cl)cc2)O[C@H]1CO
 : 7.2[16.7 µM]	-13.1
COc1ccc(NC(=O)N[C@@H]2CC[C@@H](CCn3cc(C4(O)CCCC4)nn3)O[C@H]2CO)cc1
 : 0.6[16.7 µM]	-10.7
C[C@@H]1CN([C@@H](C)CO)C(=O)Cc2cc(NS(C)(=O)=O)ccc2O[C@@H]1CN(C)Cc1ccc(C(=O)O)cc1
 : 1.2[16.7 µM]	-12.2
C[C@H]1CN([C@@H](C)CO)C(=O)c2cc(-c3cccc(F)c3)cnc2O[C@H]1CN(C)C(=O)C1CCCCC1
 : -4.5[16.7 µM]	-10.8
C[C@H](CO)N1C[C@H](C)[C@@H](CN(C)S(=O)(=O)c2ccccc2)Oc2c(NC(=O)Nc3cccc4ccccc34)cccc2C1=O
 : -5.0[16.7 µM]	9.5
C[C@H](CO)N1C[C@H](C)[C@H](CN(C)C(=O)C2CC2)Oc2cc(C#CC3CCCC3)ccc2S1(=O)=O
 : 24.6[16.7 µM]	3.3
O=C(NCc1ccc(F)cc1)[C@H]1C[C@H]2C(=O)N3CCC[C@H]3C(=O)N2[C@H]1c1cccc(OCCO)c1
 : 7.4[16.7 µM]	10.2
C[C@H](CO)N1C[C@H](C)[C@@H](CN(C)Cc2ccc(F)cc2)Oc2ncc(C3=CCCC3)cc2C1=O
 : 19.6[16.7 µM]	1.3
COc1ccc(-c2ccc([C@@H]3[C@H](C#N)N(C(=O)C4CCC4)[C@H]3CO)cc2)cc1
 : -11.3[16.7 µM]	-3.7
CN1C(=O)c2cc(NC(=O)C3CCOCC3)ccc2OC[C@@H]2O[C@H](CC(=O)NCc3ccccc3F)CC[C@H]21
 : 29.4[16.7 µM]	4.2
C[C@@H]1CN([C@H](C)CO)C(=O)c2cccc(N(C)C)c2O[C@H]1CN(C)CC1CC1
 : 4.8[16.7 µM]	4.1
CC(C)CC#Cc1cnc2c(c1)C(=O)N([C@H](C)CO)C[C@H](C)[C@@H](CN(C)C(=O)C1CCOCC1)O2
 : -19.9[16.7 µM]	12.8
C[C@@H]1CCCCO[C@H](CN(C)C)[C@@H](C)CN([C@H](C)CO)C(=O)c2cc(NS(=O)(=O)c3ccccc3)ccc2O1
 : -6.8[16.7 µM]	6.7
C[C@@H]1CCCCO[C@@H](CN(C)S(=O)(=O)c2ccc(Cl)cc2)[C@@H](C)CN([C@H](C)CO)C(=O)c2cc(NC(=O)C3CCCCC3)ccc2O1
 : 4.3[16.7 µM]	-1.9
CCCNC(=O)N[C@H]1CC[C@@H](CC(=O)NC2CCC2)O[C@H]1CO
 : 2.0[16.7 µM]	-6.2
C[C@H](NC(=O)C[C@H]1C[C@@H]2c3cc(NC(=O)CN(C)C)ccc3O[C@@H]2[C@@H](CO)O1)c1ccccc1
 : -11.2[16.7 µM]	6.0
COc1ccc(S(=O)(=O)Nc2ccc3c(c2)C(=O)N([C@@H](C)CO)C[C@H](C)[C@@H](CN(C)S(=O)(=O)c2cn(C)cn2)O3)cc1
 : -1.1[16.7 µM]	-7.9
COCC(=O)Nc1ccc2c(c1)C(=O)N(C)C[C@@H](OC)[C@H](C)CN(CCC(F)(F)F)[C@H](C)CO2
 : -8.2[16.7 µM]	14.5
COc1cccc(S(=O)(=O)N[C@@H]2C=C[C@H](CC(=O)NC3Cc4ccccc4C3)O[C@H]2CO)c1
 : ?	-2.2
CC(C)NC(=O)NCC[C@@H]1CC[C@@H](NC(=O)c2ccc(F)cc2)[C@@H](CO)O1
 : 1.4[16.7 µM]	-26.8
C[C@@H]1CN([C@H](C)CO)C(=O)c2cc(C#CC3(O)CCCC3)cnc2O[C@@H]1CN(C)S(=O)(=O)c1ccc(F)cc1
 : ?	10.5
C[C@H]1CN([C@@H](C)CO)C(=O)Cc2cc(NS(C)(=O)=O)ccc2O[C@H]1CN(C)S(=O)(=O)c1ccc(Cl)cc1
 : -15.1[16.7 µM]	-10.3
CCCC(=O)Nc1ccc2c(c1)C(=O)N(C)[C@@H]1CC[C@@H](CC(=O)N3CCc4ccccc4C3)O[C@H]1CO2
 : -26.6[16.7 µM]	37.4
O=C(C[C@@H]1CC[C@H]2[C@@H](COC[C@H](O)CN2CCC(F)(F)F)O1)NCc1ccc2c(c1)OCO2
 : -2.5[16.7 µM]	-15.5
CCCC(=O)Nc1ccc2c(c1)C(=O)N(C)[C@@H]1CC[C@@H](CC(=O)Nc3ccccc3)O[C@@H]1CO2
 : 6.9[16.7 µM]	9.1
C[C@@H]1CN([C@H](C)CO)C(=O)c2cc(C#CC3CCCCC3)cnc2O[C@H]1CN(C)C(=O)c1ccncc1
 : -11.0[16.7 µM]	-11.6
N#C[C@@H]1[C@@H](c2ccccc2)[C@H](CO)N1C(=O)c1cccnc1
 : 10.3[16.7 µM]	-9.7
O=C(N[C@@H]1CC[C@@H](CCn2cc(-c3ccccc3)nn2)O[C@H]1CO)c1ccccc1F
 : 19.8[16.7 µM]	10.3
CCCC#Cc1ccc2c(c1)O[C@H](CN(C)Cc1ccncc1)[C@H](C)CN([C@@H](C)CO)S2(=O)=O
 : 31.2[16.7 µM]	-5.2
Cc1noc(C)c1NC(=O)Nc1ccc2c(c1)C(=O)N([C@@H](C)CO)C[C@@H](C)[C@H](CN(C)C(=O)Nc1c(C)noc1C)OCCCC[C@@H](C)O2
 : -14.7[16.7 µM]	23.8
C[C@@H]1CN([C@@H](C)CO)C(=O)c2cc(C#Cc3ccccc3F)cnc2O[C@@H]1CN(C)C(=O)C1CCOCC1
 : -6.4[16.7 µM]	-3.7
Cc1noc(C)c1NC(=O)Nc1ccc2c(c1)C(=O)N([C@H](C)CO)C[C@H](C)[C@H](CN(C)CC1CC1)O2
 : -6.4[16.7 µM]	4.7
C[C@@H]1CN([C@@H](C)CO)C(=O)c2cc(NS(=O)(=O)c3cccs3)ccc2O[C@H]1CN(C)CC1CCCCC1
 : -17.2[16.7 µM]	10.8
C[C@@H]1CN([C@@H](C)CO)C(=O)c2cccc(NC(=O)c3ccc(-c4nccs4)cc3)c2O[C@H]1CN(C)CC1CCCCC1
 : -2.5[16.7 µM]	61.3
C[C@@H]1CN([C@H](C)CO)C(=O)c2cccc(NS(=O)(=O)c3ccc(Cl)cc3)c2O[C@@H]1CN(C)S(=O)(=O)c1cccs1
 : -14.8[16.7 µM]	-5.3
CC(C)CC#Cc1ccc2c(c1)O[C@H](CN(C)C(=O)c1ccccc1F)[C@@H](C)CN([C@@H](C)CO)S2(=O)=O
 : 30.2[16.7 µM]	-6.2
C[C@@H]1CN([C@@H](C)CO)C(=O)c2cccc(NS(=O)(=O)c3ccccc3)c2O[C@@H]1CN(C)C(=O)Nc1ccc2c(c1)OCO2
 : -23.2[16.7 µM]	7.6
C[C@@H]1CN([C@H](C)CO)C(=O)c2cccc(NC(=O)Nc3ccc(C(F)(F)F)cc3)c2O[C@@H]1CN(C)Cc1ccc2c(c1)OCO2
 : -11.5[16.7 µM]	6.6
O=C(C[C@H]1C[C@H]2c3cc(NS(=O)(=O)c4ccc(F)cc4)ccc3O[C@H]2[C@@H](CO)O1)NCc1ccc(-c2ccccc2)cc1
 : 7.7[16.7 µM]	-17.7
C[C@@H]1CN([C@H](C)CO)C(=O)Cc2cc(NC(=O)Cc3ccccc3)ccc2O[C@H]1CN(C)S(=O)(=O)c1cn(C)cn1
 : -22.2[16.7 µM]	-5.3
CCc1nc2c(OCc3ccc(F)cc3)cccn2c1N(C)C(=O)COc1ccccc1
 : 8.9	-9.9
O=C(C[C@H]1C=C[C@H](NS(=O)(=O)c2ccc(F)cc2)[C@@H](CO)O1)N1CCC(Cc2ccccc2)CC1
 : 9.5[16.7 µM]	-0.1
COc1ccc(S(=O)(=O)N(C)C[C@@H]2Oc3ccc(NC(=O)Cc4cn(C)c5ccccc45)cc3CC(=O)N([C@@H](C)CO)C[C@H]2C)cc1
 : -16.8[16.7 µM]	0.0
COCC(=O)N1C[C@@H](C)[C@H](OC)CN(C)C(=O)c2cc(NC(=O)NC(C)C)ccc2OC[C@H]1C
 : 13.0[16.7 µM]	3.4

# Later entries
# Results follow in this order: Env fusion inh	UUG fidelity
COc1ccc(CN(C)C[C@H]2OCCCC[C@H](C)Oc3ccc(NC(=O)NC(C)C)cc3C(=O)N([C@H](C)CO)C[C@@H]2C)cc1
 : -11.8[16.7 µM]	32.9
Cc1noc(C)c1NC(=O)N(C)C[C@H]1Oc2c(NS(=O)(=O)c3ccc(F)cc3)cccc2C(=O)N([C@@H](C)CO)C[C@H]1C
 : -7.9[16.7 µM]	1.6
CCS(=O)(=O)Nc1ccc2c(c1)C(=O)N(C)C[C@@H](OC)[C@@H](C)CN(C(=O)COC)[C@H](C)CO2
 : 2.0[16.7 µM]	-12.9
CO[C@@H]1CN(C)C(=O)c2ccc(NC(=O)Nc3ccccc3F)cc2OC[C@@H](C)N(C(=O)Nc2ccccc2F)C[C@H]1C
 : 25.1[16.7 µM]	-9.8
CS(=O)(=O)Nc1ccc2c(c1)[C@@H]1C[C@@H](CC(=O)NCCN3CCCCC3)O[C@@H](CO)[C@@H]1O2
 : -5.0[16.7 µM]	11.1
Cc1onc(-c2ccccc2)c1C(=O)OCC(=O)N1CCCCC1
 : -6.8	-0.3
COc1ccc(S(=O)(=O)N(C)C[C@H]2Oc3ccc(NC(=O)Cn4cnnn4)cc3CC(=O)N([C@@H](C)CO)C[C@@H]2C)cc1
 : -25.4[16.7 µM]	8.7
C[C@H](CO)N1C[C@H](C)[C@H](CN(C)C(=O)Nc2cccc(F)c2)Oc2cc(Br)ccc2S1(=O)=O
 : -35.1	-0.2
C[C@H]1CN([C@@H](C)CO)C(=O)Cc2cc(NC(=O)Nc3cccc4ccccc34)ccc2O[C@H]1CN(C)S(=O)(=O)c1cn(C)cn1
 : -73.6[16.7 µM]	-10.9
N#C[C@H]1[C@H](c2ccc(-c3cccc(F)c3)cc2)[C@@H](CO)N1S(=O)(=O)c1cccc(F)c1
 : 24.6[16.7 µM]	-14.4

# An excerpt from above in order of count of non-hydrogen atoms, rising.
# Results follow in this order: Env fusion inh	UUG fidelity
O=C(C[C@@H]1CC[C@H]2[C@@H](COC[C@H](O)CN2CCC(F)(F)F)O1)NCc1ccc2c(c1)OCO2
 : -2.5[16.7 µM]	-15.5
COCC(=O)N1C[C@@H](C)[C@H](OC)CN(C)C(=O)c2cc(NC(=O)NC(C)C)ccc2OC[C@H]1C
 : 13.0[16.7 µM]	3.4
O=C(C[C@H]1C=C[C@H](NS(=O)(=O)c2ccc(F)cc2)[C@@H](CO)O1)N1CCC(Cc2ccccc2)CC1
 : 9.5[16.7 µM]	-0.1

# (next part)
# Results follow in this order: Env fusion inh	UUG fidelity
C[C@@H]1CN([C@@H](C)CO)C(=O)c2cc(C#CCN(C)C)cnc2O[C@@H]1CN(C)C(=O)NC1CCCC1
 : -6.0[16.7 µM]	5.1
C[C@@H]1CN([C@@H](C)CO)C(=O)c2cc(N(C)C)ccc2O[C@H]1CN(C)C(=O)Nc1ccc(F)cc1
 : -39.8[16.7 µM]	-5.0
C[C@@H]1CN([C@@H](C)CO)S(=O)(=O)c2ccc(C#Cc3ccccc3)cc2O[C@@H]1CN(C)S(=O)(=O)c1cn(C)cn1
 : -7.8[16.7 µM]	1.4
C[C@@H]1CCCCO[C@H](CN(C)CC2CCCCC2)[C@H](C)CN([C@@H](C)CO)C(=O)c2cc(NS(=O)(=O)c3ccc(F)cc3)ccc2O1
 : -8.8[16.7 µM]	30.3
CC(C)CC#Cc1cnc2c(c1)C(=O)N([C@H](C)CO)C[C@@H](C)[C@H](CN(C)C(=O)Nc1ccccc1F)O2
 : 9.0[16.7 µM]	13.8
COCCNC(=O)C[C@H]1CC[C@@H]2[C@@H](COc3ccc(NC(=O)COC)cc3C(=O)N2C)O1
 : -2.3[16.7 µM]	2.5
COc1ccc(NC(=O)N(C)C[C@@H]2OCCCC[C@H](C)Oc3ccc(NC(=O)Nc4ccc5c(c4)OCO5)cc3C(=O)N([C@@H](C)CO)C[C@@H]2C)cc1
 : 20.3[16.7 µM]	14.5
CCNC(=O)C[C@@H]1CC[C@H]2[C@@H](COc3ccc(NC(=O)Nc4ccc(F)cc4)cc3C(=O)N2C)O1
 : 1.4[16.7 µM]	1.7
CN(C)CC(=O)Nc1ccc2c(c1)[C@H]1C[C@H](CC(=O)NCC3CC3)O[C@@H](CO)[C@H]1O2
 : -10.7[16.7 µM]	-4.6
O=S(=O)(NCC[C@@H]1CC[C@@H](NS(=O)(=O)c2ccccc2Cl)[C@@H](CO)O1)c1ccc(Cl)cc1
 : -3.9[16.7 µM]	-12.4
O=C(C[C@@H]1CC[C@H](NC(=O)C2CC2)[C@H](CO)O1)NCc1ccncc1
 : -5.8[16.7 µM]	-10.5
C[C@@H]1CCCCO[C@@H](CN(C)C(=O)c2ccccc2)[C@@H](C)CN([C@@H](C)CO)C(=O)c2cc(NS(=O)(=O)c3cn(C)cn3)ccc2O1
 : 10.0[16.7 µM]	-1.8
